# High-throughput results from PubChem BioAssay.
# Vaccinia inh – blocks a specific stage of Vaccinia orthopoxvirus infection; Vaccinia-infected cells, mCherry/Venus stage reporter fluorescence; active compounds read low; some inactives read as strong as hits; activity change (mCherry), % (concentration not given with the values); 0.01% of 89,000 active; AID 1053133;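 active means mCherry past -33% and 40 or more points under the early reporter, replicates agreeing; inconclusive means past -33% without that gap or agreement; tested in A549 cells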;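 further: scaled between vehicle wells and reference inhibitor wells; 23 nL library stock went into each well; one replicate is shown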
# Vaccinia inh Venus – further read-out of Vaccinia inh, marked with its call; activity change (Venus), %; measured here: Venus reporter, other viral stage;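 negative = less Venus signal; first of two replicates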
# Numbers without * were called inactive; ? = inconclusive; . = no result given.
# Under each structure: Vaccinia inh	Vaccinia inh Venus
O=C(NCc1cccc(F)c1)[C@@H]1[C@@H](CO)[C@@H]2Cn3c(ccc(-c4ccccc4)c3=O)[C@H]1N2CC1CC1
    -10	0
Cc1noc(C)c1S(=O)(=O)Nc1ccc2c(c1)C(=O)N([C@H](C)CO)C[C@H](C)[C@@H](CN(C)S(=O)(=O)c1ccc(F)cc1)O2
    11	11
COc1ccc(NC(=O)N(C)C[C@@H]2Oc3c(NS(=O)(=O)c4cccs4)cccc3C(=O)N([C@H](C)CO)C[C@@H]2C)cc1
    6	6
C[C@@H]1CN([C@H](C)CO)C(=O)c2cc(NC(=O)Cc3ccccc3)ccc2O[C@H]1CN(C)C(=O)NC1CCCCC1
    7	5
COC(=O)C[C@@H]1CC[C@H]2[C@@H](COc3ccc(NC(=O)c4cccc(F)c4)cc3C(=O)N2C)O1
    7	11
C/C=C/c1ccc2c(c1)O[C@H](CN(C)C(=O)c1ccc(F)cc1)[C@@H](C)CN([C@H](C)CO)S2(=O)=O
    12	-3
CC=Cc1ccc2n(c1=O)C[C@H]1[C@H](CO)[C@@H](C(=O)NCCN3CCCC3)N(C(=O)NC(C)C)[C@@H]21 (mixture of isomers)
    5	9
C[C@H]1CN([C@@H](C)CO)C(=O)c2cc(NC(=O)Nc3ccc(C(F)(F)F)cc3)ccc2O[C@@H]1CN(C)S(C)(=O)=O
    4	2
Cc1ccc(S(=O)(=O)Nc2ccc3c(c2)C(=O)N([C@@H](C)CO)C[C@@H](C)[C@H](CN(C)S(=O)(=O)c2ccccc2)OCCCC[C@@H](C)O3)cc1
    ?	.
C[C@@H]1CN([C@@H](C)CO)C(=O)c2cc(NS(=O)(=O)c3cccs3)ccc2O[C@@H](C)CCCCO[C@@H]1CN(C)Cc1ccncc1
    4	11
CN1C(=O)c2cc(NC(=O)C3CC3)ccc2OC[C@@H]2O[C@H](CC(=O)NC3CCC3)CC[C@@H]21
    -2	-3
COCC(=O)N1C[C@@H](C)[C@@H](OC)CN(C)C(=O)c2cc(NC(=O)Nc3ccccc3)ccc2OC[C@H]1C
    10	0
CCCN(C)C[C@@H]1Oc2cc(C#CCOC)ccc2S(=O)(=O)N([C@@H](C)CO)C[C@@H]1C
    13	9
Cc1ccc(-c2cnc3c(c2)C(=O)N([C@H](C)CO)C[C@H](C)[C@H](CN(C)S(C)(=O)=O)O3)cc1
    13	7
O=C(C[C@H]1C=C[C@H](NC(=O)CC2CC2)[C@H](CO)O1)NCc1ccc(Cl)cc1
    7	15

# Looked up above.
# Result for Cc1ccc(-c2cnc3c(c2)C(=O)N([C@H](C)CO)C[C@H](C)[C@H](CN(C)S(C)(=O)=O)O3)cc1 under Vaccinia inh Venus: 7
# Result for CCCN(C)C[C@@H]1Oc2cc(C#CCOC)ccc2S(=O)(=O)N([C@@H](C)CO)C[C@@H]1C under Vaccinia inh Venus: 9

# Reprinted at random: 6 entries already listed, in no set order.
# Under each structure: Vaccinia inh	Vaccinia inh Venus
O=C(C[C@H]1C=C[C@H](NC(=O)CC2CC2)[C@H](CO)O1)NCc1ccc(Cl)cc1
    7	15
COc1ccc(NC(=O)N(C)C[C@@H]2Oc3c(NS(=O)(=O)c4cccs4)cccc3C(=O)N([C@H](C)CO)C[C@@H]2C)cc1
    6	6
C[C@H]1CN([C@@H](C)CO)C(=O)c2cc(NC(=O)Nc3ccc(C(F)(F)F)cc3)ccc2O[C@@H]1CN(C)S(C)(=O)=O
    4	2
CC=Cc1ccc2n(c1=O)C[C@H]1[C@H](CO)[C@@H](C(=O)NCCN3CCCC3)N(C(=O)NC(C)C)[C@@H]21 (mixture of isomers)
    5	9
COC(=O)C[C@@H]1CC[C@H]2[C@@H](COc3ccc(NC(=O)c4cccc(F)c4)cc3C(=O)N2C)O1
    7	11
C/C=C/c1ccc2c(c1)O[C@H](CN(C)C(=O)c1ccc(F)cc1)[C@@H](C)CN([C@H](C)CO)S2(=O)=O
    12	-3

# Next entries follow.
# Under each structure: Vaccinia inh	Vaccinia inh Venus
CCCNC(=O)N(C)C[C@@H]1Oc2cc(-c3ccccc3)ccc2S(=O)(=O)N([C@@H](C)CO)C[C@@H]1C
    -10	-10
C[C@@H]1CCCCO[C@@H](CN(C)C(=O)Nc2ccc(F)cc2)[C@H](C)CN([C@@H](C)CO)C(=O)c2cc(NS(=O)(=O)c3ccc(Cl)cc3)ccc2O1
    32	14
O=C(Nc1ccc(C(F)(F)F)cc1)N1C[C@@H]2N[C@H](C1)C2c1ccc(/C=C/c2ccccc2)cc1 (stereo partly drawn)
    ?	.
Cc1ccccc1-c1cnc2c(c1)C(=O)N([C@@H](C)CO)C[C@@H](C)[C@H](CN(C)C(=O)CN(C)C)O2
    13	12
C[C@@H]1CN([C@H](C)CO)C(=O)c2cc(Br)cnc2O[C@H]1CN(C)C(=O)Cc1ccncc1
    ?	.
COc1ccc(CN(C)C[C@@H]2Oc3ccc(NS(=O)(=O)c4ccc(C)cc4)cc3C(=O)N([C@H](C)CO)C[C@@H]2C)cc1
    0	5
O=C(c1cnccn1)N1CC(=O)N2[C@H](C1)[C@@H](c1ccc(-c3ccccc3)cc1)[C@@H]2CO
    9	0
CCCNC(=O)Nc1ccc2c(c1)C(=O)N(C)C[C@H](OC)[C@@H](C)CN(C(=O)C1CCC1)[C@H](C)CO2
    4	9
C/C=C/c1ccc([C@@H]2[C@@H](CO)N(C(=O)COC)[C@H]2CNC(=O)CC)cc1
    13	14
O=C(C[C@@H]1CC[C@@H]2[C@H](COC[C@@H](O)CN2C(=O)c2ccncc2)O1)NCc1ccc(-c2ccccc2)cc1
    -15	-11
O=C(C[C@H]1CC[C@H](NC(=O)CCN2CCCCC2)[C@H](CO)O1)Nc1ccccc1
    8	5
C[C@@H](O)C#Cc1cnc2c(c1)C(=O)N([C@@H](C)CO)C[C@H](C)[C@H](CN(C)C(=O)c1ccncc1)O2
    20	10
COc1ccccc1C#Cc1cnc2c(c1)C(=O)N([C@@H](C)CO)C[C@H](C)[C@H](CN(C)S(=O)(=O)c1cn(C)cn1)O2
    0	5
O=C(Nc1cccc(F)c1)N1CC(=O)N2[C@H](CO)[C@H](c3ccc(C#CC4CC4)cc3)[C@@H]2C1
    -15	-10
C[C@H](CO)N1C[C@H](C)[C@@H](CN(C)C(=O)C2CCC2)Oc2cc(C3=CCCCC3)ccc2S1(=O)=O
    -30	-26
O=C(C[C@@H]1C=C[C@@H](NC(=O)C2CC2)[C@@H](CO)O1)NCCCN1CCOCC1
    8	6
COc1ccc(S(=O)(=O)N(C)C[C@@H]2Oc3ccc(NC(=O)C4CC4)cc3C(=O)N([C@@H](C)CO)C[C@@H]2C)cc1
    10	11
COc1ccc(NC(=O)N(C)C[C@@H]2Oc3ncc(C#C[C@@H](C)O)cc3C(=O)N([C@@H](C)CO)C[C@H]2C)cc1
    19	5
C[C@@H]1CN([C@@H](C)CO)C(=O)c2cc(NS(=O)(=O)c3cn(C)cn3)ccc2O[C@@H](C)CCCCO[C@@H]1CN(C)C(=O)NC1CCCCC1
    9	1
O=C(NCC[C@H]1CC[C@@H](NS(=O)(=O)Cc2ccccc2)[C@@H](CO)O1)C1CC1
    -6	-6
COc1ccc(-c2ccc(C3[C@H]4CNC[C@@H]3N4Cc3nccs3)cc2)cc1 (stereo partly drawn)
    1	3
C/C=C/c1cnc2c(c1)C(=O)N([C@@H](C)CO)C[C@@H](C)[C@@H](CN(C)S(=O)(=O)c1ccccc1F)O2
    0	5
C[C@H](CO)N1C[C@H](C)[C@@H](CN(C)Cc2ccc(Cl)c(Cl)c2)Oc2ccc(NC(=O)Cn3cnnn3)cc2CC1=O
    2	1
COc1ccc(-c2cn(CC[C@H]3CC[C@H](NC(=O)CCN4CCCCC4)[C@H](CO)O3)nn2)cc1
    -4	3
O=C(C[C@H]1CC[C@@H](NS(=O)(=O)c2cccc(F)c2)[C@H](CO)O1)N1CCCCC1
    10	3
C[C@@H]1CN([C@H](C)CO)C(=O)c2cc(NC(=O)C3CC3)ccc2O[C@H]1CN(C)CC1CCCCC1
    -11	-1
C[C@@H]1CN([C@H](C)CO)C(=O)Cc2cc(NS(C)(=O)=O)ccc2O[C@@H]1CN(C)Cc1ccncc1
    -3	5
Cc1noc(C)c1NC(=O)Nc1ccc2c(c1)C(=O)N([C@H](C)CO)C[C@H](C)[C@@H](CN(C)C(=O)c1ccccc1)OCCCC[C@@H](C)O2
    21	13
COCC#Cc1cnc2c(c1)C(=O)N([C@H](C)CO)C[C@@H](C)[C@@H](CN(C)C(=O)CN1CCOCC1)O2
    8	6
O=C(c1cccc(F)c1)N1CCCCN2[C@H](CO)[C@H](c3ccc(-c4ccc(F)cc4)cc3)[C@@H]2C1
    ?	.
CO[C@H]1CN(C)C(=O)c2cc(NC(C)=O)ccc2OC[C@H](C)N(C(=O)C2CCCCC2)C[C@@H]1C
    12	10
C[C@H]1CCCCO[C@@H](CN(C)C(=O)NC2CCCCC2)[C@@H](C)CN([C@@H](C)CO)C(=O)c2cc(NS(=O)(=O)c3cn(C)cn3)ccc2O1
    7	5
C[C@H](O)C#Cc1ccc2c(c1)O[C@@H](CN(C)C(=O)Cc1ccccn1)[C@H](C)CN([C@H](C)CO)S2(=O)=O
    3	0
C[C@@H]1CN([C@H](C)CO)C(=O)c2cc(NC(=O)CCC(F)(F)F)ccc2O[C@@H]1CN(C)C(=O)Nc1ccc2c(c1)OCO2
    -9	-12
C[C@@H]1CCCCO[C@H](CN(C)S(=O)(=O)c2ccc(Cl)cc2)[C@H](C)CN([C@@H](C)CO)C(=O)c2cc(NC(=O)CCC(F)(F)F)ccc2O1
    ?	.
C/C=C/c1cnc2c(c1)C(=O)N([C@H](C)CO)C[C@@H](C)[C@@H](CN(C)S(=O)(=O)c1ccccc1)O2
    7	-1
CO[C@H]1CN(C)C(=O)c2ccc(NC(=O)c3cccc(Oc4ccccc4)c3)cc2OC[C@H](C)NC[C@@H]1C
    ?	.
C[C@@H]1CN([C@@H](C)CO)S(=O)(=O)c2ccc(C#Cc3ccccc3F)cc2O[C@H]1CN(C)CC1CC1
    15	1
CC(C)NC(=O)N[C@@H]1CC[C@@H](CC(=O)NC2Cc3ccccc3C2)O[C@@H]1CO
    15	8
CCCC#Cc1cnc2c(c1)C(=O)N([C@@H](C)CO)C[C@@H](C)[C@H](CN(C)S(=O)(=O)c1ccccc1)O2
    1	7
CCS(=O)(=O)N1Cc2cc(C(=O)NCCOC)nc(-c3cccc(-c4ccncc4)c3)c2[C@@H]1CCO
    19	22
CC(C)NC(=O)Nc1ccc2c(c1)C(=O)N(C)[C@@H]1CC[C@H](CC(=O)Nc3ccccc3)O[C@H]1CO2
    5	8
CO[C@@H]1CN(C)C(=O)c2cc(NC(=O)c3ccccc3F)ccc2OC[C@@H](C)N(CC2CC2)C[C@H]1C
    -17	-14
COCC(=O)N1[C@H](C#N)[C@@H](c2ccccc2-c2cccc(F)c2)[C@@H]1CO
    2	10
CC(C)C#Cc1ccc([C@@H]2[C@H](CO)N3C(=O)CN(C(=O)NC4CCCCC4)C[C@@H]23)cc1
    -2	1
O=C(C[C@H]1C=C[C@@H](NC(=O)Cc2cccnc2)[C@H](CO)O1)Nc1ccc(-c2ccccc2)cc1
    7	2
Cc1ccc(S(=O)(=O)N(C)C[C@H]2Oc3c(NC(=O)C4CCCCC4)cccc3C(=O)N([C@@H](C)CO)C[C@@H]2C)cc1
    1	-2
CO[C@@H]1CN(C)C(=O)c2ccc(NC(C)=O)cc2OC[C@@H](C)N(C(=O)Nc2ccccc2F)C[C@H]1C
    13	4
CC(C)NC(=O)N(C)C[C@H]1Oc2ccc(N(C)C)cc2CC(=O)N([C@@H](C)CO)C[C@@H]1C
    11	-2
C[C@@H]1CN([C@H](C)CO)C(=O)c2cc(-c3cccc(C#N)c3)cnc2O[C@@H]1CN(C)Cc1ccccc1
    -6	0
O=C(c1ccncc1)N1CC2(C1)[C@@H](c1ccccc1)[C@@H](CO)N2CC1CCCC1
    3	8
O=C(N[C@H]1CC[C@@H](CCNS(=O)(=O)Cc2ccccc2)O[C@@H]1CO)c1cnccn1
    0	0
COC(=O)[C@@H]1[C@@H](CO)[C@@H]2Cn3c(ccc(-c4ccncc4)c3=O)[C@H]1N2CCc1ccccc1
    24	13
O=C(c1cccnc1)N1C[C@@H]2[C@H](c3ccccc31)[C@H](CO)N2C(=O)C1CCCC1
    10	10
COc1ccc(S(=O)(=O)N(C)C[C@H]2OCCCC[C@H](C)Oc3ccc(N(C)C)cc3C(=O)N([C@@H](C)CO)C[C@@H]2C)cc1
    -18	-13
COc1ccc(NC(=O)N(C)C[C@H]2OCCCC[C@H](C)Oc3ccc(NS(=O)(=O)c4ccc(F)cc4)cc3C(=O)N([C@@H](C)CO)C[C@@H]2C)cc1
    0	-3
Cc1ccc(S(=O)(=O)N(C)C[C@H]2OCCCC[C@@H](C)Oc3ccc(NC(=O)NC4CCCCC4)cc3C(=O)N([C@H](C)CO)C[C@H]2C)cc1
    ?	.
C[C@H](CO)N1C[C@H](C)[C@@H](CN(C)Cc2ccc(-c3ccccc3)cc2)Oc2ccc(NS(C)(=O)=O)cc2CC1=O
    ?	.
COc1ccc(NC(=O)N(C)C[C@@H]2Oc3c(cccc3N(C)C)C(=O)N([C@H](C)CO)C[C@H]2C)cc1
    -3	-1
Cc1ccc(S(=O)(=O)Nc2ccc3c(c2)CC(=O)N([C@@H](C)CO)C[C@@H](C)[C@@H](CN(C)C(=O)Nc2c(C)noc2C)O3)cc1
    20	9
C[C@@H]1CN([C@@H](C)CO)S(=O)(=O)c2ccc(C#C[C@@H](C)O)cc2O[C@@H]1CN(C)Cc1cccnc1
    3	0
C[C@@H]1CN([C@H](C)CO)C(=O)Cc2cc(NC(=O)Nc3cccc4ccccc34)ccc2O[C@@H]1CN(C)Cc1ccc(C(F)(F)F)cc1
    -25	-17
O=C(Cc1ccncc1)NCC[C@@H]1CC[C@H](NC(=O)C2CCCCC2)[C@@H](CO)O1
    1	5

# An excerpt; the hit share may differ from the screen's.
